NS1 function inh – inhibitors of influenza NS1 protein function | Potency, µM (series often up to 46.1 µM), inactives show at the top dose activity, positive = more growth | AID 2326 | 270,000 tested, 0.4% active | S. cerevisiae slowed by influenza A NS1, growth recovery by OD600; further: actives are rising curves; nearly all actives have a fitted effect of over 50% in size
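S. cerevisiae expressing influenza A NS1, grown in glucose, washed, then diluted 1:100 into pH 6.0 -URA galactose medium with 23 nl compound. Growth recovery read as OD600; NS1-free strain serves as control.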
SARS PLpro yeast – SARS-CoV PLP inhibition in yeast; S. cerevisiae expressing SARS-CoV PLpro, growth rescue; control for the full effect not named in the record; Potency, µM (titrated, usually from 32.9 µM), for inactives: at the highest dose activity, positive = growth rescue; 330,000 tested, 0.19% active; AID 485353; further: 0% is about no effect; nearly all actives have a fitted effect of over 55% in size; growth read by luminescence after 48 h
Cruzain noTriton – blocks cruzain activity in detergent-free assay | 200,000 tested, 2.3% active | Potency, µM, for inactives: max response, negative = inhibition, hits mostly inhibitors | AID 1476 | P25779 | purified cruzain, Z-FR-AMC fluorescence, no detergent; active means well fitted curve in the direction sought with a large enough effect; inconclusive means small, poorly fitted or top-dose-only effect, or another doubt; inactive means no such curve, though single readings can be large; an effect the other way counts as inactive or inconclusive;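 further: plate controls were enzyme without inhibitor for no effect and buffer without enzyme for full effect; nearly all actives have a fitted effect of over 40% in size; top concentration of the series not given in the record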
Target sequence (P25779 123-467 limits assumed): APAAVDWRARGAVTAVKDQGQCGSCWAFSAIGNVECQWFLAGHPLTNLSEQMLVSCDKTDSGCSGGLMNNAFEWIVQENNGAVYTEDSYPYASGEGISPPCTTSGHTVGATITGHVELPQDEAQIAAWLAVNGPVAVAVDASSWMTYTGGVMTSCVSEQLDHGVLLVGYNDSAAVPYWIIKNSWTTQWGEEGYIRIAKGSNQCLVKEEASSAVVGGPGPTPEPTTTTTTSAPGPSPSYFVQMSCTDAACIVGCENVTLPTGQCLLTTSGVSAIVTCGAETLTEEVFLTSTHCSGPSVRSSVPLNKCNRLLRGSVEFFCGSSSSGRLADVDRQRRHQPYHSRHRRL
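Purified cruzain at 1.5 nM, pre-incubated 15 min with compound at room temperature in 100 mM sodium acetate pH 5.5, 5 mM DTT, 0.00005% Triton X-100. Reaction started with 2 uM Z-FR-AMC; AMC fluorescence increase over 60 s gives rate.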
RE007 growth inh – less growth of the S. pombe RE007 Vpr strain. S. pombe RE007 Vpr strain, BacTiter-Glo ATP luminescence, 24 h; control for the full effect not named in the record. Potency, µM (top dose mostly 92.2 µM), inactives show at the top dose activity change, negative = less growth. AID 651644. 360,000 tested, 0.21% active; active = well fitted falling curve with a large enough effect; inconclusive = small, poorly fitted or top-dose-only effect; inactive = no such curve, though single readings can be large or run the other way;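 further: on the % scale 0 is the no-effect control and ±100 the full control effect; nearly all actives have a fitted effect of over 50% in size; the assay follows cell death caused by Vpr and the record does not say whether a fall means rescue or toxicity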
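Fission yeast strain RE007, carrying one chromosomally integrated HIV-1 vpr copy, was seeded at OD 0.01 in PMG+AL medium with 23 nL pinned compound. After 24 h at 30 °C and 99% humidity, viability was read by BacTiter-Glo luminescence.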
Lassa entry inh – Lassa virus entry inhibition; Lassa virus pseudotype entry inhibition, cell reporter; control for the full effect not named in the record; Potency, µM (titrated, usually from 37.9 µM), inactives show at the highest dose activity change, negative = inhibition, hits mostly inhibitors; 300,000 tested, 1.2% active; active means well fitted inhibition curve with a large enough effect; inconclusive means small, poorly fitted or top-dose-only effect, or effect the other way; inactive means flat fitted curve, though single readings scatter; tested in HEK293 cells; further: on the % scale 0 is the no-effect control and ±100 the full control effect; nearly all actives have a fitted effect of over 50% in size; luciferase read-out
MARV entry inh – Marburg virus entry inhibition; Potency, µM (top dose mostly 37.8 µM), for inactives: top-dose activity change, negative = inhibition, most hits filed as inhibitors; 300,000 tested, 1.8% active; Marburg virus pseudotyped entry inhibition, cell reporter; control for the full effect not named in the record; about a third of the inactives were read at about 46 µM; active = well fitted inhibition curve with a large enough effect; inconclusive = small, poorly fitted or top-dose-only effect, or effect the other way; inactive = flat fitted curve, though single readings scatter; tested in HEK293 cells; about a fifth of its hits are not listed in these tables; further: on the % scale 0 is the no-effect control and ±100 the full control effect; luciferase read-out
Cruzain Triton – cruzain (T. cruzi) inhibition with detergent. Potency, µM, for the others: max response, negative = inhibition, actives largely listed as inhibitors. 200,000 tested, 0.43% active. P25779. purified cruzain, Z-FR-AMC fluorescence, 0.01% Triton; active means well fitted curve in the direction sought with a large enough effect; inconclusive means small, poorly fitted or top-dose-only effect, or another doubt; inactive means no such curve, though single readings can be large; an effect the other way counts as inactive or inconclusive;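 further: plate controls were neutral wells for no effect and buffer without enzyme for full effect; nearly all actives have a fitted effect of over 40% in size; top concentration of the series not given in the record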
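Steps: dispense cruzain (1.5 nM final) in acetate buffer pH 5.5 with DTT and 0.01% Triton X-100; pin-transfer compounds; incubate 15 min RT; add Z-FR-AMC (2 uM final); read fluorescence every 30 s, using the 60 s intensity change.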
StopGo reporter – lowers the luciferase signal of an FMDV 2A StopGo reporter. human cells with a luciferase reporter of 2A StopGo recoding; control for the full effect not named in the record. 410,000 tested, 1.2% active. Potency, µM (top dose mostly 57.9 µM), for inactives: at the highest dose signal change, negative = less light. AID 1159524; active = well fitted falling curve with a large enough effect; inconclusive = small, poorly fitted or top-dose-only effect; inactive = no such curve, though single readings can be large or run the other way; tested in HEK293T cells; further: on the % scale 0 is the no-effect control and ±100 the full control effect; nearly all actives have a fitted effect of over 45% in size; luciferase light after 4 h
An asterisk follows results filed as active; ? = inconclusive; · = no result given; & = joins results of further samples; [ ] = another dose, or the depositor's remark. Unless noted, the call rests on the fitted dose curve; in most records, active means well fitted rising curve with a large enough effect; inconclusive means small, poorly fitted or top-dose-only effect; inactive means no such curve, though single readings can be large or run the other way. Potency means the concentration at half of the fitted maximal effect.

SMILES	NS1 function inh	SARS PLpro yeast	Cruzain noTriton	RE007 growth inh	Lassa entry inh	MARV entry inh	Cruzain Triton	StopGo reporter
COc1cccc(N2CC(NC(=O)c3cccc4ccccc34)CC2=O)c1 (stereo not given)	·	-7%	·	26%	-25%	-22%[46.1 µM]	·	-11%
CCC1(C)N(O)C(C)(C)C(c2ccc(F)cc2)=[N+]1[O-] (stereo not given)	5%	-21%	-2%	-9%	-7%	-3%[46.1 µM]	0.2%	-15%
C=CCOc1ccc(/C(O)=C2/C(=O)C(=O)N(CCCn3ccnc3)C2c2ccco2)cc1 (stereo not given)	1%	1%	·	11%	·	·	·	10%
O=S(=O)(Cc1cc(Sc2ccccc2)nc(-c2ccccc2)n1)c1ccccc1	2%	0%	?	-14%	?	?	0.8%	-21%
CCCNCc1nnc(-c2ccccc2Cl)o1	-1%	6%	11%	-12%	?	?	0.4%	29%
CCN(CC)S(=O)(=O)c1ccc(NS(=O)(=O)c2ccc(O)c([N+](=O)[O-])c2)cc1	5%	-8%	-2%	5%	1%	?	-6.0%	21%
CCOc1ccc(-c2cccc(NS(=O)(=O)c3ccccc3[N+](=O)[O-])c2)nn1	·	-4%	·	9%	2%	12%[46.1 µM]	·	36%[activator]
Cc1nn(C)cc1S(=O)(=O)N1CCN(Cc2ccccc2Cl)CC1	1%	1%	·	1%	-8%	7%[46.1 µM]	·	3%
C/C(=N\NC(=O)c1cc(C)nc2ccccc12)c1cccc(Cl)c1	-14%	?	·	16%	-24%[46.1 µM]	-7%[46.1 µM]	·	-18%
O=c1[nH]c(C(F)(F)F)nc2c1nnn2Cc1ccccc1F	2%	2%	-7%	-1%	0%	-10%	-0.7%	6%
COc1ccc([N+](=O)[O-])cc1Nc1c2ccccc2nc2ccccc12	7%	2%	·	-10%	·	·	·	32µM*
CCN1CCN(CC(=O)c2c[nH]c3ccccc23)CC1	-10%	5%	1%	-8%	5%	10%[46.1 µM]	-1.7%	-11%
COC(=O)c1sc(NC(=O)c2c(C)noc2C)nc1C	-13%	-2%	·	8%	·	·	·	-4%
COc1ccc(NC(=O)COC(=O)CN2C(=O)c3ccccc3C2=O)cc1	·	1%	·	20%	-18%[46.1 µM]	15%	·	6%
CC(=O)Nc1ccc(S(=O)(=O)Nc2cc(C)ccn2)cc1	13%	2%	·	0%	-14%[46.1 µM]	11%[46.1 µM]	·	26%
Cn1cnc(S(=O)(=O)Nc2ccc3c(c2)OCCO3)c1	3%	1%	·	-11%	8%[46.1 µM]	-15%[46.1 µM]	·	15%
Cc1ccc(C)c(-c2nc3cc(N)ccc3o2)c1	14%	-8%	-7%	-14%	-15%	0%	-4.1%	-3%
COc1ccc(/C=N/NC(=O)COc2ccccc2-c2ccccc2)cc1	-2%	-4%	7%	-1%	?	?	-6.1%	?
O=[N+]([O-])c1ccc(CN2CCSCC2)cc1	·	0%	·	1%	5%	1%[46.1 µM]	·	-15%
CCC(=NCCCN(CC)CC)c1c(O)n(-c2ccccc2)c(=O)[nH]c1=O	?	-4%	7%	-11%	-17%	3%	4.8%	-22%
CC(C)(C)c1nc(N2CCN(C(=O)c3ccco3)CC2)c2nnn(Cc3ccccc3Cl)c2n1	13µM*	0%	-3%	2%	?	?	-1.9%	-22%
OCC1(Cc2ccccc2)CCN(C2CCN(c3ccccc3F)CC2)CC1	3%	0%	·	14%	3%	?	·	-10%
CCOCCCNC(=O)c1cn(C)c2ccc(S(=O)(=O)N(C)C3CCCCC3)cc2c1=O	-11%	5%	?	·	·	0%	-3.5%	·
COc1ccc(CCNC(=O)C2(c3cccs3)CCOCC2)cc1OC	·	·	6%	·	27%[46.1 µM]	·	-1.4%	0%
N#Cc1cnn2c1nc(N1CCCCC1)c1ccccc12	-8%	5%	1%	2%	-2%	-3%	1.9%	-23%

An excerpt from above in order of formula weight, lowest first.
SMILES	NS1 function inh	SARS PLpro yeast	Cruzain noTriton	RE007 growth inh	Lassa entry inh	MARV entry inh	Cruzain Triton	StopGo reporter
Cc1ccc(C)c(-c2nc3cc(N)ccc3o2)c1	14%	-8%	-7%	-14%	-15%	0%	-4.1%	-3%
CCC1(C)N(O)C(C)(C)C(c2ccc(F)cc2)=[N+]1[O-] (stereo not given)	5%	-21%	-2%	-9%	-7%	-3%[46.1 µM]	0.2%	-15%
COc1ccc([N+](=O)[O-])cc1Nc1c2ccccc2nc2ccccc12	7%	2%	·	-10%	·	·	·	32µM*
COc1cccc(N2CC(NC(=O)c3cccc4ccccc34)CC2=O)c1 (stereo not given)	·	-7%	·	26%	-25%	-22%[46.1 µM]	·	-11%
COc1ccc(NC(=O)COC(=O)CN2C(=O)c3ccccc3C2=O)cc1	·	1%	·	20%	-18%[46.1 µM]	15%	·	6%
Cc1nn(C)cc1S(=O)(=O)N1CCN(Cc2ccccc2Cl)CC1	1%	1%	·	1%	-8%	7%[46.1 µM]	·	3%
OCC1(Cc2ccccc2)CCN(C2CCN(c3ccccc3F)CC2)CC1	3%	0%	·	14%	3%	?	·	-10%
CCOCCCNC(=O)c1cn(C)c2ccc(S(=O)(=O)N(C)C3CCCCC3)cc2c1=O	-11%	5%	?	·	·	0%	-3.5%	·
CC(C)(C)c1nc(N2CCN(C(=O)c3ccco3)CC2)c2nnn(Cc3ccccc3Cl)c2n1	13µM*	0%	-3%	2%	?	?	-1.9%	-22%

Other compounds.
SMILES	NS1 function inh	SARS PLpro yeast	Cruzain noTriton	RE007 growth inh	Lassa entry inh	MARV entry inh	Cruzain Triton	StopGo reporter
O=C(NCCc1cccc(F)c1)C1CCC(=O)N(CCCc2ccccc2)C1 (stereo not given)	-4%	3%	·	-1%	6%	2%	·	13%
CCn1c(SCC(=O)Nc2ccc3c(c2)OCO3)nnc1C(C)C	-4%	-1%	·	11%	5%[46.1 µM]	-5%[46.1 µM]	·	3%
Cc1nnsc1NC(=O)OCC(C)(C)C	-6%	-2%	-4%	2%	0%	?	0.8%	0%
CCc1sc(C(=O)Nc2ccc3nc(C)sc3c2)cc1C	·	-10%	·	-18%	-15%	8%	·	40%[activator]
CN(CC(=O)Nc1ccc(F)c(F)c1F)C(=O)c1ccc2c(c1)S(=O)(=O)N=C1CCCCCN12	·	0%	·	-8%	-11%	-5%[46.1 µM]	·	2%
CSc1nc(C)cc(Oc2ccccc2)n1	7%	0%	·	-8%	16%[46.1 µM]	1%[46.1 µM]	·	-18%
CCN(CC)C(=O)CSc1ncnc2sc(C)c(C)c12	-5%	0%	·	5%	?	3%[14.2 µM]	·	-23%
COCCNC(=O)C(C)N(c1ccc(OC)cc1)S(C)(=O)=O (stereo not given)	6%	7%	3%	-10%	-5%	2%	4.2%	-11%
CCC(=O)NCCc1nc2cc(NC(=O)c3ccco3)ccc2n1C	1%	2%	·	2%	·	?	·	42%[activator]
O=C(CCl)N(Cc1cccc([N+](=O)[O-])c1)c1cccc(Cl)c1	·	-14%	·	48%	-12%	?	·	28µM*
CC(=O)Oc1ccc(N2C(=O)CC(N3CCOCC3)C2=O)cc1 (stereo not given)	5%	-2%	6%	-2%	23%	0%	0.5%	-4%
Cc1ccccc1C(=O)N1CCC(C(=O)N(CC(C)C)c2c(N)n(Cc3ccccc3)c(=O)[nH]c2=O)CC1	·	-2%	·	-14%	0%	-4%	·	-20%
CCN(CC)S(=O)(=O)c1cccc(C(=O)NC(Cc2c[nH]c3ccccc23)c2nnc3n2CCC3)c1 (stereo not given)	-9%	7%	?	22%	?	-1%	-1.9%	-2%
CC(C)/C(C=O)=C(/NC1CCCCC1)c1ccccc1	·	·	·	0%	?	-27%	·	?
Cc1ccc(S(=O)(=O)N2CCC(C(=O)N3CCC[C@H]3C(=O)NCC(C)C)CC2)cc1	-1%	-3%	·	8%	16%[46.1 µM]	3%[46.1 µM]	·	0%
CC(C)C(=O)NNc1nc2ccccc2s1	23%	1%	-2%	2%	11%	3%	-1.1%	·
O=C(Nc1cccc(C(F)(F)F)c1)N1CC2CCCN2c2ccccc21 (stereo not given)	·	·	?	·	-5%[46.1 µM]	·	-4.4%	-14%
CC(=O)Nc1nc2ccc(Br)cc2s1	-75%	-31%	-14%	?	-26%	?	1.4%	14%
COc1ccc2oc(C(=O)OCC(=O)NC3CCCCC3)c(C)c2c1	·	-6%	·	2%	-9%	-4%	·	3%
CC(Nc1nc(Nc2ccc(F)cc2)nc(SCC(N)=O)n1)c1ccccc1 (stereo not given)	?	0%	·	5%	-7%	?	·	0%
O=C(C1CCN(S(=O)(=O)N2CCOCC2)CC1)N1CCN(c2ccc(F)cc2)CC1	·	-4%	·	-2%	1%[46.1 µM]	-39%[46.1 µM]	·	-2%
O=C(NCCc1ccccc1)c1cc(-c2ccco2)on1	-12%	-30%	-29%	6%	-3%	-1%	-5.4%	63%[activator]
CCOC(=O)C1=C(COC(=O)c2nc(Cl)ccc2Cl)NC(=O)NC1C (stereo not given)	·	-1%	·	-4%	14%	12%	·	-9%
O=C(C[n+]1ccccc1)Nc1ccc(Cl)c([N+](=O)[O-])c1	13%	-3%	·	-15%	·	·	·	-3%
Cn1ccc(C(=O)OCC(=O)Nc2ccccc2)n1	-5%	-2%	·	30%	14%[46.1 µM]	19%[46.1 µM]	·	12%
CCOC(=O)c1cc2c(=Cc3ccc(N(C)C)cc3)c3ccccc3n2[n+]1C	·	·	·	?	11µM*	?	·	18µM*
Cc1c(P(=S)(c2ccccc2)c2ccccc2)[n+]2ccccc2n1C	7%	5%	·	-9%	·	·	·	-18%&-15%

Bioassay records (PubChem)
